Bioassay records from PubChem.
StopGo reporter = FMDV 2A StopGo reporter, luciferase signal | human cells with a luciferase reporter of 2A StopGo recoding; control for the full effect not named in the record | Potency, µM (top dose mostly 57.9 µM), without a hit: at the highest dose signal change, negative = less light | 410,000 tested, 1.2% active | AID 1159524; active = well fitted falling curve with a large enough effect; inconclusive = small, poorly fitted or top-dose-only effect; inactive = no such curve, though single readings can be large or run the other way; tested in HEK293T cells; note: % is set by controls: 0 for no effect and ±100 for the full control effect; nearly all actives have a fitted effect of over 45% in size; luciferase light after 4 h
NS1 inh = influenza NS1 inhibition; S. cerevisiae slowed by influenza A NS1, growth recovery by OD600; 270,000 tested, 0.4% active; Potency, µM (doses to about 46.1 µM), without a hit: at the top dose activity, positive = more growth; active means well fitted rising curve with a large enough effect; inconclusive means small, poorly fitted or top-dose-only effect; inactive means no such curve, though single readings can be large or run the other way; note: nearly all actives have a fitted effect of over 50% in size
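Compounds were scored for reversing the slow growth caused by influenza A NS1 in S. cerevisiae, measured by optical density at 600 nm. Assay medium contained 2% galactose at pH 6.0; NS1-free yeast of the same strain were the positive control.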
SARS PLpro yeast = inhibitors of SARS-CoV papain-like protease in yeast; Potency, µM (highest dose often 32.9 µM), inactives show at the top dose activity, positive = growth rescue; 330,000 tested, 0.19% active; AID 485353; S. cerevisiae expressing SARS-CoV PLpro, growth rescue; control for the full effect not named in the record; active means well fitted rising curve with a large enough effect; inconclusive means small, poorly fitted or top-dose-only effect; inactive means no such curve, though single readings can be large or run the other way; note: 0% is about no effect; nearly all actives have a fitted effect of over 55% in size; growth read by luminescence after 48 h
Cruzain inh noDet = blocks cruzain activity in detergent-free assay; 200,000 tested, 2.3% active; Potency, µM, for inactives: max response, negative = inhibition, hits mostly inhibitors; P25779; purified cruzain, Z-FR-AMC fluorescence, no detergent;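 note: plate controls were enzyme without inhibitor for no effect and buffer without enzyme for full effect; nearly all actives have a fitted effect of over 40% in size; top concentration of the series not given in the record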
Target sequence (P25779 123-467 limits assumed): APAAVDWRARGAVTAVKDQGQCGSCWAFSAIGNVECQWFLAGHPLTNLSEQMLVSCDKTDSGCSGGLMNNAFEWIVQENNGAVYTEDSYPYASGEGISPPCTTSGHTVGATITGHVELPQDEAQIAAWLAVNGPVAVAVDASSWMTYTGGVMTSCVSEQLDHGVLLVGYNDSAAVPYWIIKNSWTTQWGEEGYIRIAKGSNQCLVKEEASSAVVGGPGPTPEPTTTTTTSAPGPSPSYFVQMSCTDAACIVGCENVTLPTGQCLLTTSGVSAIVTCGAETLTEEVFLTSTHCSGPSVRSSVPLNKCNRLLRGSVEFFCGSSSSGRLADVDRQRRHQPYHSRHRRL
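Detergent-free condition (0.00005% Triton X-100) in acetate buffer pH 5.5 with DTT. 1.5 nM enzyme and compound were pre-mixed 15 min, then 2 uM Z-FR-AMC substrate added; reaction progress from fluorescence change between first and third reads (60 s).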
Marburg entry inh = blocks Marburg virus binding to or entry into cells | Marburg virus pseudotyped entry inhibition, cell reporter; control for the full effect not named in the record; about a third of the inactives were read at about 46 µM | Potency, µM (series often up to 37.8 µM), inactives show at the top dose activity change, negative = inhibition, hits mostly inhibitors | 300,000 tested, 1.8% active; active = well fitted inhibition curve with a large enough effect; inconclusive = small, poorly fitted or top-dose-only effect, or effect the other way; inactive = flat fitted curve, though single readings scatter; tested in HEK293 cells; about a fifth of its hits are not listed in these tables; note: % is set by controls: 0 for no effect and ±100 for the full control effect; luciferase read-out
Cruzain Triton = blocks cruzain activity in presence of Triton detergent; purified cruzain, Z-FR-AMC fluorescence, 0.01% Triton; 200,000 tested, 0.43% active; Potency, µM, for the others: max response, negative = inhibition, usual class: inhibitors;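 note: plate controls were neutral wells for no effect and buffer without enzyme for full effect; nearly all actives have a fitted effect of over 40% in size; top concentration of the series not given in the record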
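Purified cruzain (1.5 nM final) was preincubated with compounds for 15 min at room temperature in 100 mM sodium acetate pH 5.5, 5 mM DTT, 0.01% Triton X-100. Reaction started with 2 uM Z-FR-AMC; AMC fluorescence change over 60 s gave activity.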
RE007 growth inh = less growth of the S. pombe RE007 Vpr strain; 360,000 tested, 0.21% active; S. pombe RE007 Vpr strain, BacTiter-Glo ATP luminescence, 24 h; control for the full effect not named in the record; Potency, µM (series often up to 92.2 µM), for the others: top-dose activity change, negative = less growth; active = well fitted falling curve with a large enough effect; inconclusive = small, poorly fitted or top-dose-only effect; inactive = no such curve, though single readings can be large or run the other way;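 note: % is set by controls: 0 for no effect and ±100 for the full control effect; nearly all actives have a fitted effect of over 50% in size; the assay follows cell death caused by Vpr and the record does not say whether a fall means rescue or toxicity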
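Fission yeast RE007 carrying one integrated HIV-1 vpr copy, seeded at OD 0.01 in PMG+AL medium with 23 nL pinned compound. Grown 24 h at 30 degrees; viability read by BacTiter-Glo luminescence after 5 min.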
Lassa entry inh = Lassa virus entry inhibition; Lassa virus pseudotype entry inhibition, cell reporter; control for the full effect not named in the record; 300,000 tested, 1.2% active; AID 540256; Potency, µM (highest dose often 37.9 µM), for inactives: at the highest dose activity change, negative = inhibition, actives largely listed as inhibitors; active means well fitted inhibition curve with a large enough effect; inconclusive means small, poorly fitted or top-dose-only effect, or effect the other way; inactive means flat fitted curve, though single readings scatter; tested in HEK293 cells; note: % is set by controls: 0 for no effect and ±100 for the full control effect; nearly all actives have a fitted effect of over 50% in size; luciferase read-out
* hit, by the source's call; ? = inconclusive; . = not tested or not shown; [ ] = another dose, or the depositor's remark. Unless noted, calls come from the whole dose curve; as a rule, active = well fitted curve in the direction sought with a large enough effect; inconclusive = small, poorly fitted or top-dose-only effect, or another doubt; inactive = no such curve, though single readings can be large; an effect the other way counts as inactive or inconclusive. Potency is the fitted concentration of half-maximal effect.

SMILES	StopGo reporter	NS1 inh	SARS PLpro yeast	Cruzain inh noDet	Marburg entry inh	Cruzain Triton	RE007 growth inh	Lassa entry inh
Cc1cc(C)c2c(-n3cccc3)c(C(=O)NNS(=O)(=O)c3ccccc3)sc2n1	35%[activator]	15%	-19%	-3%	-4%	-7.6%	2%	0%
CSc1nnc(N2C(=O)C(O)=C(C(=O)c3ccco3)C2c2cccc(Cl)c2)s1 (stereo not given)	-4%	0%	-1%	.	.	.	23%	.
Cc1ccc(S(=O)(=O)Nc2cncnc2NS(=O)(=O)c2ccc(C)cc2)cc1	-8%	.	.	.	5%[46.1 µM]	.	0%	?
CC(Sc1nnc(-c2ccco2)n1C)C(=O)Nc1ccc(N2CCOCC2)cc1 (stereo not given)	5%	.	-4%	.	0%[46.1 µM]	.	27%	0%
COc1ccc(-c2nnc3n2N=C(c2ccccc2)CS3)cc1OC	.	-2%	2%	26%	0%	-6.7%	.	.
COc1ccc(C2CC(=O)c3cc(OC)c(OC)cc32)cc1OC (stereo not given)	-12%	3%	1%	.	-16%	.	-12%	?
CN1CCN(c2cn[nH]c(=O)c2Cl)CC1	8%	1%	-1%	.	3%[46.1 µM]	.	11%	18%[46.1 µM]
CCc1ccc(CN(C)C(=O)C2CCC(=O)N(CCc3ccc(OC)cc3)C2)nc1 (stereo not given)	-19%	-5%	1%	.	.	.	-9%	.
O=C(Nc1nc2c(F)cccc2s1)c1ccc([N+](=O)[O-])o1	21%	2%	-4%	.	.	.	-11%	.
CCN(CCCNC(=O)C1CCC(=O)N1C1CCCC1)c1cccc(C)c1 (stereo not given)	5%	-2%	0%	2%	-3%	-2.0%	-7%	-4%
Cc1cc(=O)oc2c(C)c(OCC(=O)NC3CC(C)(C)NC(C)(C)C3)ccc12	-10%	0%	-4%	.	-23%[46.1 µM]	.	-5%	?
O=[N+]([O-])c1ccc2nc(-c3ccc(OC(F)F)cc3)cn2c1	0%	.	0%	.	?	.	-1%	?
COCCCNC(=S)Nc1ccc(N2CCCCC2)cc1	0%	.	-1%	.	?	.	0%	-19%[46.1 µM]
CCN(C(=O)CSc1nncs1)c1c(N)n(Cc2ccccc2)c(=O)[nH]c1=O	-29%	-1%	2%	5%	6%	0.7%	12%	1%
Cc1n[nH]c(=S)n1/N=C/c1ccc(OCc2ccc(Cl)cc2)cc1	18%	-46%	-2%	2%	6%	-0.6%	10%	18%
COc1ccc(-c2noc(=O)[nH]2)cc1	-4%	9%	-29%	10%	-4%	-2.8%	1%	0%
CNC(=O)CSc1nc2cccnc2n1C1CCCCC1	3%	6%	-4%	.	.	.	4%	.
COc1cccc(NC(=O)c2oc3ccccc3c2NC(=O)c2ccccc2C)c1	-7%	.	.	?	0%[46.1 µM]	-2.5%	.	7%[46.1 µM]
CCc1cccc(N(C(=O)c2csnn2)C(C(=O)NC2CCCC2)c2cccnc2)c1 (stereo not given)	1%	14%	1%	.	-8%[46.1 µM]	.	0%	1%
COc1ccccc1Nc1ncccc1C(=O)O	9%	-13%	9%	-3%	15%	-2.5%	0%	0%
CCOc1ccc(NC(=O)C(C)n2c(=O)cc(-c3ccccc3)c3c(C)nn(C)c32)cc1 (stereo not given)	-14%	.	.	-6%	.	-0.6%	.	12%[46.1 µM]
Nc1ccc(S(=O)(=O)N2CCCC2)cc1	-24%	18%	-5%	-1%	.	0.1%	21%	.
O=C(O)CSCc1cnn(-c2ccccc2)c1-n1cccc1	-20%	-63%	14%	-28%	5%	-9.0%	0%	18%[14.3 µM]
CCCc1cc(=O)oc2cc(C)cc(OCC(=O)NC3CC3)c12	-19%	4%	-4%	.	.	.	-6%	.
O=C(c1ccc2c(c1)[nH]c(=S)n1c3ccccc3nc21)N1CCN(c2ncccn2)CC1	-17%	?	-1%	?	7%	-0.4%	3%	6%
Cc1cc(C)cc(C(=O)N(CCc2ccccc2)C2=CC3CCC(C2)N3C)c1 (stereo not given)	-5%	.	-2%	.	?	.	0%	-14%
COc1ccc2c(CC(=O)OCC(=O)Nc3ccccc3[N+](=O)[O-])coc2c1	2%	-21%	6%	5%	0%	-5.3%	-22%	5%
Cc1nn(C)c(NC(=O)c2ccc([N+](=O)[O-])cc2)c1Cl	-7%	0%	0%	.	5%	.	-5%	-19%
COc1ccc(N2C(=O)/C(=C/C=C/c3ccccc3[N+](=O)[O-])C(=O)NC2=S)cc1	22µM*	.	5%	.	14%[46.1 µM]	.	-8%	-18%
Cc1cc2c(cc1S(N)(=O)=O)S(=O)(=O)CCC2	-13%	.	.	-5%	.	2.8%	-5%[18.4 µM]	.
Cc1ccc(S(=O)(=O)N2CCN(C(=O)COc3ccc(NC(=O)c4ccco4)cc3)CC2)cc1	-4%	-3%	4%	1%	50%	-2.2%	-2%	-2%
CCOC(=O)c1nc(-c2ccccc2)oc1N(C)C	-1%	-12%	-2%	15%	-2%	-12%	-20%	3%
CCN(CC)CCC#CC(O)(c1ccccc1)c1ccccc1	-11%	6%	8%	-11%	13%	-2.6%	26%	-5%
CCOc1ccc(N2CC(C(=O)Nc3ccc(N4CCOCC4)cc3)CC2=O)cc1 (stereo not given)	-21%	9%	-3%	8%	8%	-1.3%	2%	11%
CC(=O)c1ccc(NC(=O)c2onc(C)c2Cl)cc1	0%	-3%	0%	.	.	.	12%	.
CC(c1ccon1)N(C)Cc1cn[nH]c1-c1ccc(F)cc1F (stereo not given)	-27%	2%	1%	.	7%[46.1 µM]	.	5%	4%
COc1ccc(-c2[nH]ncc2CN(C)C(C)c2cccs2)c(F)c1 (stereo not given)	-15%	2%	-1%	.	?	.	3%	-29%
COc1ccc(-c2cc3cc(OC)c(OC)cc3c(C)n2)cc1C	13%	3%	-4%	.	.	.	11%	.
CCN(CC)S(=O)(=O)c1ccc(Cl)c(NC(=O)COC(=O)c2cccn2C)c1	13µM*	.	0%	.	?	.	-24%	-22%
Cc1cc(C)nc(OC(C(=O)O)C(OCC(C)C)(c2ccccc2)c2ccccc2)n1 (stereo not given)	-16%	6.3µM*	-4%	.	.	.	6%	.
O=C(N/N=C/C=C/c1ccccc1)c1ccncc1	15%	0%	5%	3%	-18%	-9.6%	2%	?
Cc1cc(C)nc(SCc2cccc(C(=O)O)c2)n1	.	3%	-1%	-4%	1%	4.1%	10%	-11%
Cc1cc(OCCOCCN2CCCC2)ccc1C(C)C	-14%	0%	-5%	5%	?	6.2%	3%	?
CCOC(=O)C1CCCCN1C(=O)CCc1c(C)nc2cc(-c3ccccc3)nn2c1C (stereo not given)	?	?	-4%	?	2%	-8.4%	4%	.
O=C(COC(=O)/C=C/c1ccccc1)Nc1ccc(Cl)cn1	-9%	.	8%	.	23%	.	-3%	8%
CC(C)Cc1nn2c(=O)cc(O)nc2s1	10%	4%	-42%	4%	6%[46.1 µM]	0.0%	6%	-4%
CCn1c(SCC(=O)Nc2nc(C)cs2)nnc1-c1ccncc1	-6%	-1%	3%	.	18%[46.1 µM]	.	-8%	-1%[46.1 µM]
CCN(C(=O)CSc1ncn[nH]1)c1c(N)n(Cc2ccccc2)c(=O)[nH]c1=O	10%	.	3%	.	7%	.	18%	7%
CN(C)C1(CNC(=O)Cc2ccccc2F)CCCCC1	-7%	7%	-1%	.	-15%[46.1 µM]	.	-7%	6%[46.1 µM]
CCCC(=O)NC1CCCc2c1cnn2-c1ccc(C)c(C)c1 (stereo not given)	17%	-18%	-13%	.	.	.	23%	.
CCCC(=O)N1CCN(c2nnc(-c3ccc(C)cc3)c3ccccc23)CC1	-27%	-7%	6%	.	.	.	21%	.
CCc1ccc(C(=O)COC(=O)CNC(=O)c2ccc(Br)o2)cc1	1%	-19%	-7%	.	8%	.	-3%	1%
COc1ccc(N2C(=O)CC(N(C)CCc3ccc(OC)c(OC)c3)C2=O)cc1 (stereo not given)	4%	1%	-2%	.	4%[46.1 µM]	.	22µM*	4%
CCOC(=O)C1CCN(c2ccc(Cl)nn2)CC1	-13%	.	-6%	.	6%[46.1 µM]	.	-3%	-16%[46.1 µM]
Cc1ccc2cccc(NC(=O)C(C)Oc3ccc(C)c(C)c3)c2n1 (stereo not given)	-21%	.	.	-8%	1%[46.1 µM]	-2.8%	.	1%[46.1 µM]
Cn1c(SCC(=O)NCCN2C(=O)CSC2=O)nc2ccccc2c1=O	2%	3%	3%	3%	11%	1.6%	6%	-5%
Cc1ccc(CN(Cc2cc3cc4c(cc3[nH]c2=O)OCCO4)Cc2nnnn2Cc2ccco2)cc1	-14%	17%	3%	11%	?	20µM*	0%	?
CCCOc1ncnc2c1sc1nc3c(cc12)COC(C)(C)C3	77%[activator]	-1%	0%	.	.	.	10%	.
COc1cc(-c2cc(C(=O)Nc3cccc(C(C)=O)c3)c3ccccc3n2)cc(OC)c1OC	-28%	-1%	3%	.	?	.	5%	?
CCc1ccc(C(=O)COC(=O)c2cc([N+](=O)[O-])ccc2N2CCOCC2)cc1	-4%	.	2%	.	3.2µM*	.	-6%	?
(more compounds)
SMILES	StopGo reporter	NS1 inh	SARS PLpro yeast	Cruzain inh noDet	Marburg entry inh	Cruzain Triton	RE007 growth inh	Lassa entry inh
Cc1cccc(NC(=O)NC(C)C(c2cccs2)N2CCOCC2)c1 (stereo not given)	-21%	-3%	2%	6%	.	-1.0%	1%	.
O=C(C(Cc1ccccc1)N1C(=O)C2C3C=CC(C3)C2C1=O)N1CCCCC1 (stereo not given)	5%	7%	?	6%	-5%	0.9%	2%	14%
CC(C(=O)NC1CCCCC1)N1CCN(C)CC1 (stereo not given)	-12%	8%	0%	.	.	.	9%	.
O=C1CCC/C(=N/NC(=O)C2CCN(S(=O)(=O)c3cccs3)CC2)C1	-8%	6%	?	9%	1%[46.1 µM]	-2.4%	-3%	-14%
COc1ccccc1NC(=O)CSc1ccc(-c2ccc(-n3ccnc3)cc2)nn1	?	.	.	.	-17%	.	-11%	-10%
COc1ccc(NC(=O)CCCCCn2nnc3ccccc3c2=O)cc1OC	-4%	-1%	1%	.	.	.	11%	.
